KinaseGlo FLuc: Kinase-Glo luciferase inhibition (counter-screen); Q27757; Kinase-Glo luciferase, ATP luminescence, 8 min; Potency, µM (top dose mostly 38.3 µM), for the others: at the highest dose activity change, negative = inhibition, usual class: inhibitors; actives 0.28% (n = 200,000); also: potency is read from the fitted curve at half-maximal effect; % is scaled to controls: 0 for no effect and ±100 for the full control effect; nearly all actives have a fitted effect of over 60% in size
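Kinase-Glo luciferase light output from ATP and luciferin was measured with 10 uM ATP, within the enzyme's linear range. Buffer: 50 mM imidazole pH 7.2, 50 mM KCl, 7 mM MgCl2, 0.01% Tween 20, 0.05% BSA; luminescence read after 8 min at ambient temperature.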
LMNA splice mod: changes lamin A minigene splicing in HeLa cells; actives 0.01% (n = 200,000); HeLa LMNA splicing GFP/RFP minigene ratio, 48 h; AID 1487; Potency, µM (highest dose often 46.1 µM), for inactives: at the highest dose ratio change, negative = inhibition, hits mostly inhibitors; active = well fitted inhibition curve with a large enough effect in the signal ratio, with a control signal flat, not every such curve was filed as active; inconclusive = small, poorly fitted or top-dose-only effect, or effect the other way, or a change in a side signal; the % refers to the signal ratio; also: potency is read from the fitted curve at half-maximal effect; % is scaled to controls: 0 for no effect and ±100 for the full control effect
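Read-out is the ratio of GFP to DsRed2 object intensity, acquired by 488 nm laser-scanning cytometry on HeLa lamin A-EGFP minigene reporter cells. Compound incubation 48 hrs at 37 °C in Opti-MEM with 2% FBS; DMSO 0.5% final.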
HttQ103 aggreg: inhibitors of mutant huntingtin aggregate formation in PC12 cells; PC12 HttQ103-GFP aggregates, Acumen cytometry, 40 h; Potency, µM (highest dose often 46.1 µM), for inactives: top-dose activity change, negative = inhibition, hits mostly inhibitors; actives 1.1% (n = 220,000); AID 1688; also: potency is read from the fitted curve at half-maximal effect; % is scaled to controls: 0 for no effect and ±100 for the full control effect; nearly all actives have a fitted effect of over 60% in size
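Ecdysone-promoter PC12 model expressing HTT exon 1 Q103 fused to GFP, induced by tebufenozide at 100 nM final. Compounds titrated; aggregates sized 1–25 µm scored on a 488 nm laser cytometer.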
CBFb RUNX1 block: inhibitors of human CBF-beta and RUNX1 interaction | Q01196+Q13951 | AlphaScreen CBFb-His/RUNX1-biotin binding, biochemical | Potency, µM (doses to about 59.8 µM), inactives show top-dose activity, negative = inhibition, actives largely listed as inhibitors | 230,000 tested, under 10 active | AID 1477; also: % of control where 0% means no effect
Target sequence (Q01196 whole entry, looked up): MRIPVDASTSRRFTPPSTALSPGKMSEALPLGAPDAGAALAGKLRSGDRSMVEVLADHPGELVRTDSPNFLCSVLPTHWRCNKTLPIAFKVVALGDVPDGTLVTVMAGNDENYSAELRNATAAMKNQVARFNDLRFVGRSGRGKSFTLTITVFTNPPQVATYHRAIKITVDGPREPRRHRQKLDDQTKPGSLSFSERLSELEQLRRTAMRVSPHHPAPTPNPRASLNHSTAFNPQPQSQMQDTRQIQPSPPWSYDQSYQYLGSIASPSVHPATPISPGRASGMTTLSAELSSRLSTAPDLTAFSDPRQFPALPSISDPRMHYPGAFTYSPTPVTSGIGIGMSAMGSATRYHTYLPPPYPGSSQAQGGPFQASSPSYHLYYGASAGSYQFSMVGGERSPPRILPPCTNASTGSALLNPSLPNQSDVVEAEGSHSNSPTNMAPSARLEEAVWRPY
Target sequence (Q13951 whole entry, looked up): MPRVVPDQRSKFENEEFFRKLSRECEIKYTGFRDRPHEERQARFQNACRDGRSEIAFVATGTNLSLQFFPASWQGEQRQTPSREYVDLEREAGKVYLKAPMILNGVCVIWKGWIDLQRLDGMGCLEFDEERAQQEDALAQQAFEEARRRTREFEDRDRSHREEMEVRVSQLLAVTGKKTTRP
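Room-temperature protein-protein interaction test with 30 nM each of His-tagged CBF-beta and biotinylated RUNX1, 15 min with compound, then 90 min with nickel plus streptavidin beads. Signal read in AlphaScreen mode.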
IMPase Li cell: IMPase inhibition in cells with lithium potentiation; Potency, µM (highest dose often 59.4 µM), for inactives: top-dose activity, negative = IMPase inhibition, usual class: inhibitors; CHO-M1 cells, IP1 TR-FRET (IP-One), carbachol + lithium; actives 0.35% (n = 210,000);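 also: IP1 builds up when IMPase is blocked and the TR-FRET signal falls; potency is read from the fitted curve at half-maximal effect; plate controls were basal vehicle for no effect and high inhibitor control for full effect; nearly all actives have a fitted effect of over 50% in size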
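IP1 accumulation measured by competitive TR-FRET in lysed CHO-M1 cells after 30 min compound exposure at 37C, with a small lithium addition to potentiate weak responses. Hill-equation AC50 from ratio and donor-channel data.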
Epigenetic derep: derepresses silenced GFP reporter in murine cells | actives 0.2% (n = 280,000) | murine LDR cells, GFP reporter derepression, 30 h | AID 1865 | Potency, µM (titrated, usually from 53.9 µM), inactives show at the highest dose GFP activation, actives largely listed as activators; also: potency is read from the fitted curve at half-maximal effect; % of control where 0% means no effect; nearly all actives have a fitted effect of over 60% in size
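Murine LDR cells bearing a silenced CMV-driven GFP reporter were exposed to compound for 30 h at 37 C. After PBS washes, GFP-positive cells (20-120 um objects) counted by laser-scanning microplate cytometry.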
* marks the source's active call; other numbers are inactive results; u = inconclusive; x = not tested or not shown; & = joins results of further samples; [ ] = remark or other dose. Unless noted, calls follow the shape of the dose curve; as a rule, active = well fitted curve in the direction sought with a large enough effect; inconclusive = small, poorly fitted or top-dose-only effect, or another doubt; inactive = no such curve, though single readings can be large; an effect the other way counts as inactive or inconclusive. These rows are one share of the data; count on the stated rates, not on these rows.

SMILES	KinaseGlo FLuc	LMNA splice mod	HttQ103 aggreg	CBFb RUNX1 block	IMPase Li cell	Epigenetic derep
CCOC(=O)CSc1nc(N)c(C#N)c(-c2ccc(OCC)cc2)c1C#N	0%	13%	13%	-6%	u	4.3%
CC(CN1CCOCC1)OC(=O)C(c1ccccc1)c1ccccc1 (stereo not drawn)	3%	-1%	-14%	2%	7%	-0.1%
O=C1OC(c2ccc(Br)cc2)=N/C1=C\N1CCCCC1	-1%	12%	2%	6%	44%[activator][38.3 µM]	0.9%
COc1ccccc1OCC(=O)N/N=C1/SCC(=O)N1Cc1ccccc1	1%	0%	3%	-4%	-18%[38.3 µM]	-1.9%
Cc1cccc(NC(=S)Nc2ccc(Oc3ccccc3)cc2)n1	-3%	u	-7%	-2%	28%	0.0%
Cc1nn(-c2cccc(Cl)c2)c2nc(-c3ccco3)cc(C(=O)O)c12	18%	-5%	6%	-5%	3%[38.3 µM]	0.8%
C(=C\c1nc(N2CCCCCC2)c2ccccc2n1)/c1ccccc1	x	u	13%	-6%	x	2.6%
Cc1onc(-c2ccccc2)c1NC(=O)N(Cc1ccccc1)C(C)C	x	x	14%[9.22 µM]	-7%	x	2.0%
Fc1cccc(-c2cc3nc(-c4ccccc4)cc(N4CCC5(CC4)OCCO5)n3n2)c1	2%	u	-13%	u	4%	0.0%
CC(=O)N1N=C(c2c(-c3ccccc3)c3cc(Br)ccc3[nH]c2=O)CC1c1ccco1 (stereo not drawn)	x	x	3%[9.22 µM]	-4%	x	4.2%
CN1CCN(c2ccccc2NC(=O)c2sc3ccccc3c2Cl)CC1	3%	-19%[46 µM]	2%	-5%	10%	-0.4%
Cc1ccc(S(=O)(=O)NC2(C(F)(F)F)C(=O)Nc3c2c(=O)[nH]c(=O)n3-c2ccccc2)cc1 (stereo not drawn)	3%	-6%	18%	-4%	-9%	2.2%&0.0%
O=C(N/N=C/c1cccs1)c1cccc(NC(=O)c2ccc(Cl)cc2)c1	0%	-10%	u	-5%	19%	2.1%
Cc1nc2c(c3c1[nH]c1ccccc13)C(=O)CC(C)(C)C2	0%	u	-5%	6%	-18%[38.3 µM]	-3.0%
CCOC(=O)c1ccc(N2C(=O)c3n[nH]c(C)c3C2c2ccc(O)cc2)cc1 (stereo not drawn)	0%	u	42%	-1%	-11%[38.3 µM]	-1.0%
CCc1nc(N2CCCCC2)c2oc3ccccc3c2n1	-1%	u	-19%	8%	32%[activator][38.3 µM]	0.0%
CN1C(=O)/C(=C/c2ccccc2Cl)Sc2ccc(C(=O)NCc3cccnc3)cc21	0%	x	u	-4%	6%	-0.1%
CCCCNc1nc(-c2ccccc2)c(C(=O)OCC)cc1C#N	1%	u	-13%	u	8%[38.3 µM]	1.0%
FC(F)(F)COc1nc(N2CCOCC2)nc(N(c2ccccc2)c2ccccc2)n1	-1%	u	-10%	23%	3%	-1.0%
CC(C)C(=O)Nc1cccc(C(=O)NCc2ccc(S(N)(=O)=O)cc2)c1	2%	9%	-7%	1%	13%[38.3 µM]	-0.8%
CC(C)C[C@H](NC(=O)OC(C)(C)C)c1nnc(SCc2cccc(F)c2)o1	-1%	-4%	1%	3%	45%[38.3 µM]	-1.1%
CC(=O)N(CCC(c1ccco1)C(C)C)Cc1ccc(OC(C)C)cc1 (stereo not drawn)	x	x	5%[9.22 µM]	11%	x	-0.3%
CCN(CC)S(=O)(=O)c1ccc2oc(C(=O)Nc3ccc(OC)cc3OC)c(C)c2c1	-4%	11%	-8%	-1%	17%[38.3 µM]	-0.9%
CCC(=NCc1ccco1)c1c(C(F)(F)F)[nH]n(-c2nc3ccccc3s2)c1=O	-8%	5%	22%	-3%	26%[38.3 µM]	3.2%
COc1ccc(-c2c3c(=O)n(C)c(=O)n(C)c3cn2-c2cccc(OC)c2)cc1	-2%	10%	11%	-5%	36%[activator][38.3 µM]	-0.2%

A stretch taken from the entries so far, as a working copy:
SMILES	KinaseGlo FLuc	LMNA splice mod	HttQ103 aggreg	CBFb RUNX1 block	IMPase Li cell	Epigenetic derep
CC(C)C[C@H](NC(=O)OC(C)(C)C)c1nnc(SCc2cccc(F)c2)o1	-1%	-4%	1%	3%	45%[38.3 µM]	-1.1%
CC(=O)N(CCC(c1ccco1)C(C)C)Cc1ccc(OC(C)C)cc1 (stereo not drawn)	x	x	5%[9.22 µM]	11%	x	-0.3%

(continued)
SMILES	KinaseGlo FLuc	LMNA splice mod	HttQ103 aggreg	CBFb RUNX1 block	IMPase Li cell	Epigenetic derep
CCOC(=O)N1CCN(C(=O)CNC2CCCCCCC2)CC1	0%	-6%[46 µM]	14%	9%	18%	1.3%
CC1CCCN(CC(=O)Nc2ccc(S(=O)(=O)NC3CCCCC3)cc2)C1 (stereo not drawn)	1%	-3%	-14%	5%	10%[38.3 µM]	-1.0%
O=C(N/N=C/c1ccc(-c2cccc(C(F)(F)F)c2)o1)c1cccc(F)c1	3%	-15%	-5%	-2%	-4%	-1.9%
CC[C@@H]1CC=C[C@H]2[C@H]1C(=O)N(Cc1ccccc1)[C@H]2c1ccc(C(F)(F)F)cc1	x	x	-27%[9.22 µM]	26%	x	2.4%
O=C(O)CN1C(=O)SC(Nc2ccc(C(=O)O)cc2)C1=O (stereo not drawn)	1%	13%	10%[9.22 µM]	1%	7%[38.3 µM]	1.3%
CCN(CC)CCN1C2=C(C(=O)CC(C)(C)C2)C(c2cccc(F)c2)C2=C1CC(C)(C)CC2=O	-1%	-4%[9.22 µM]	-9%	1%	7%	2.1%
CCn1c(Cc2ccccc2)nnc1SCC(=O)Nc1ccc(S(N)(=O)=O)cc1	3%	7%	-2%	8%	32%[activator][38.3 µM]	1.1%
CC(C)Cn1c(NCCN(C)C)nc2c1c(=O)[nH]c(=O)n2C	-2%	3%	-4%	15%	-39%[38.3 µM]	-1.7%
CCOc1cc(-c2nc3cc(C)ccn3c2NCC2CCCO2)ccc1O (stereo not drawn)	1%	6%	u	-1%	-1%[38.3 µM]	-0.3%
O=C(NC1CCCCCCC1)c1cnccn1	-1%	1%	5%	8%	3%[38.3 µM]	0.5%
Cc1ccccc1N(CC(=O)N/N=C/c1ccc(Cl)cc1)C(=O)c1ccccc1	-1%	3%	2%	-3%	23%[38.3 µM]	0.9%
CCCCN(CCCC)S(=O)(=O)c1ccc(NC(=O)c2cccs2)cc1	17%	u	13µM*	5%	21%[38.3 µM]	-0.2%
CN1C(=O)NC(c2ccc(O)cc2)C2=C1CN(c1ccccc1)C2=O (stereo not drawn)	x	x	-18%[9.22 µM]	3%	x	-0.4%
O=C1c2ccccc2NC(c2c(Cl)cccc2Cl)N1Cc1ccccc1 (stereo not drawn)	-1%	u	u	-2%	21%[38.3 µM]	-1.5%
O=c1cc(N2CCCCC2)c(-c2ccccc2)nn1Cc1ccc(F)cc1	2%	-17%[9.22 µM]	u	2%	25%	0.6%
CC1CCN(S(=O)(=O)c2ccc(NC(=O)CN3CCCC(C)C3)cc2)CC1 (stereo not drawn)	0%	9%	-3%	-5%	38%[38.3 µM]	-0.8%
c1coc(-c2nnc(SCc3cn4ccccc4n3)o2)c1	0%	-3%	5%	2%	-7%[38.3 µM]	-4.4%
Cc1ccc(N(C(=O)c2cnccn2)C(C(=O)NC2CCCCC2)c2ccc(O)cc2)cc1 (stereo not drawn)	3%	x	-4%[9.22 µM]	3%	0%	4.5%
C=CCNc1nc(-c2ccccc2)c(C(=O)OCC)cc1C#N	-1%	u	0%	27%	2%[38.3 µM]	1.1%
CC1=C(C(=O)Nc2ccccn2)C(c2cccnc2)n2nnnc2N1 (stereo not drawn)	x	u	-6%	-1%	x	-1.0%
O=C(CN1CCN(c2ccccn2)CC1)Nc1ccccc1	-6%	11%	4%	6%	40%[activator][38.3 µM]	-5.6%
O=C(Oc1cccc2cccnc12)c1cccs1	1%	2%	-11%	-8%	6%[38.3 µM]	u
CCOC(=O)c1cc(C#N)c(Oc2ccccc2)nc1-c1ccccc1	0%	3%	u	u	31%[activator]	-0.1%
COC(=O)C1=C(Nc2ccc(C)cc2)C=C(C)C(C(=O)OC)C1c1ccc(F)cc1 (stereo not drawn)	0%	u	-9%	14%	13%	1.0%
COc1ccc(/C=C/C(=O)NC(=S)N2CCN(c3ccccn3)CC2)cc1	x	x	22%[9.22 µM]	-7%	x	-1.0%
SMILES	KinaseGlo FLuc	LMNA splice mod	HttQ103 aggreg	CBFb RUNX1 block	IMPase Li cell	Epigenetic derep
COc1ccc(OC)c(-c2cc(C(F)(F)F)c3c(n2)sc2c(O)cc(=O)[nH]c23)c1	2%	-2%	23%	5%	-5%	1.3%
CCOC(=O)c1nc2sc3c(c2c(=O)n1C(C)C(=O)OCC)CCCC3 (stereo not drawn)	-1%	u	15%	7%	18%	4.2%
Cn1c(=O)c2c(nc(Cl)n2Cc2ccc(Cl)c(Cl)c2)n(C)c1=O	-3%	3%	11%	1%	9%[38.3 µM]	-0.2%
COc1ccc(Cn2nc(-c3ccccc3)c(N3CCCCC3)cc2=O)cc1	2%	x	u	-12%	34%[activator]	-1.3%
COCCNc1nc2c(S(=O)(=O)c3cc(C)ccc3C)nnn2c2ccccc12	2%	x	-1%	25%	u	9.7%
CCOC(=O)c1c(C)sc(Sc2ccc(Cl)cc2[N+](=O)[O-])c1OC	-6%	u	-20%	-25%	32%[activator][38.3 µM]	2.1%
Cc1cccc(N2CCN(C(c3cccs3)c3nnnn3C(C)(C)C)CC2)c1C (stereo not drawn)	-4%	5%	11µM*	3%	4%[38.3 µM]	-1.3%
COc1cc2cc(CN(CCN3CCCC3)C(=O)Nc3ccccc3Cl)c(=O)[nH]c2cc1OC	-4%	1%	9%	-6%	2%[38.3 µM]	-1.0%
CCc1nc(N2CCN(C(=O)c3ccco3)CC2)c2oc3ccccc3c2n1	-3%	u	-18%	-3%	5%[38.3 µM]	-0.9%
N#CCSc1nc2ccccc2c(=O)n1-c1ccccc1	1%	-2%	16%	8%	26%[38.3 µM]	-2.1%
Cc1ccc(S(=O)(=O)NCC(=O)OCC(=O)Nc2cccc(S(=O)(=O)NC3=NCCCCC3)c2)cc1	0%	x	8%	10%	-13%	-3.9%
Cc1ccc(-c2cc(C(=O)Nc3ccc4c(c3)OCCO4)c3ccccc3n2)cc1	u	-9%	10%	11%	0%	-0.9%
CCOC(=O)c1c(NC(=O)CSc2nnc(C)s2)sc2c1CCC(C)C2 (stereo not drawn)	-2%	u	-7%	13%	7%	1.2%

Record cards (already shown). Values in the order: KinaseGlo FLuc | LMNA splice mod | HttQ103 aggreg | CBFb RUNX1 block | IMPase Li cell | Epigenetic derep
CCOC(=O)c1c(C)sc(Sc2ccc(Cl)cc2[N+](=O)[O-])c1OC as listed: -6% | u | -20% | -25% | 32%[activator][38.3 µM] | 2.1%
COc1ccc(Cn2nc(-c3ccccc3)c(N3CCCCC3)cc2=O)cc1 as listed: 2% | x | u | -12% | 34%[activator] | -1.3%
